High-throughput results: PubChem BioAssay, several laboratories
Mtb bLac sens: beta-lactam sensitization of Mtb H37Rv; inhibition, % at 25 µM; M. tuberculosis H37Rv growth with meropenem, percent inhibition; hits of this screen are not shown here; hit rate 0.27% among 330,000;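 active = about 74% or more and at least 40 points above the plate without the antibiotic, then above 30% in a dose series; inconclusive = first-round hits that could not be retested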;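 note: growth measured after seven days incubation then overnight dye step; 0% = bacteria only wells and 100% = bacteria with antibiotic; twin plates without the antibiotic show which effects depend on it; some results filed as inactive read as strong as hits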
RecA intein inh: blocks M. tuberculosis RecA intein splicing; hit rate 0.75% among 290,000; cell-free RecA intein splicing, fluorescence; inhibition, %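 (about 9 µM by stock and volumes)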; in the data active = inhibition above about 30%; inconclusive = no clear call, values can overlap the other calls;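 note: 0% = vehicle wells and 100% = reference inhibitor control wells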
Target sequence (P9WHJ3 whole entry, looked up): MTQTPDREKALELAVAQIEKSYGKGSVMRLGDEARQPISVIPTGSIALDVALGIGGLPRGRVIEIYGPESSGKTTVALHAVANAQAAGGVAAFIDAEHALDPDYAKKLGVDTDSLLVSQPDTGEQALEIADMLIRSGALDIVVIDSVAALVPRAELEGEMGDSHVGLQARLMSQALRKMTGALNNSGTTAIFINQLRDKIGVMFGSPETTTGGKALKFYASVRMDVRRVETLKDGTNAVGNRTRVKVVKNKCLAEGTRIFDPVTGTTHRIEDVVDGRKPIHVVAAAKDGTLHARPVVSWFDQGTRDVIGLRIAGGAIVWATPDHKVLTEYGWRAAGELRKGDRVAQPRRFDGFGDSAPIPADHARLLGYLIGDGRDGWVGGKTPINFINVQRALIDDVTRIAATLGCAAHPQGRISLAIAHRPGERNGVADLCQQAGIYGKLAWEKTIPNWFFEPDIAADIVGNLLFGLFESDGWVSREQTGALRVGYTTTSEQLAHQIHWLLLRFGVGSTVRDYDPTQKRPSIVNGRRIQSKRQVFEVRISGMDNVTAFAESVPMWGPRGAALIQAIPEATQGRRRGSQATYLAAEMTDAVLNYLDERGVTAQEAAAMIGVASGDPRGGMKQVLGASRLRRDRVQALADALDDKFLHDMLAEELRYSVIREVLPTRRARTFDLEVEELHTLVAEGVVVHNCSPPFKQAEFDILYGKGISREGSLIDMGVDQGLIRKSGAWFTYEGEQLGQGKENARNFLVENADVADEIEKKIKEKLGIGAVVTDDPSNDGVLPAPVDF
YopH inh: YopH (Yersinia) phosphatase inhibition | inhibition, %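 (about 10 µM by stock and volumes)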 | fluorescence Ex485/Em525 | hit rate 0.16% among 140,000;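 active = inhibition of 50% or more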;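 note: controls were vehicle for no effect and minimum signal wells for full effect; inactives centre near -20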
Arbovirus inh: antivirals against arbovirus infection; arbovirus infection cell-based antiviral screen; inhibition, % at 10 µM; hit rate 0.37% among 200,000; AID 1251;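 active = inhibition from about 30%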;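 note: bluetongue infection of BSR cells; cell survival read as ATP light after 72 h; 0% = infected wells without compound and 100% = uninfected wells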
Mtb H37Rv: M. tuberculosis H37Rv growth inhibitors, H37Rv strain (AID 1626); inhibition, % at 10 µM; hits with a dose series show IC50 in µM; M. tuberculosis H37Rv growth inhibition; higher % means a stronger effect; hit rate 0.95% among 220,000;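 active = confirmed in a dose series; inconclusive = inhibition above 80% but not taken into the dose series; inactive = below 80% or under 30% at every dose of the series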;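 note: bacteria incubated seven days before Alamar blue readout; 0% = bacteria only wells and 100% = bacteria with antibiotic wells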
Arbovirus inh repeat: recorded beside Arbovirus inh, whose call it bears; inhibition, %; measured here: 10K subset replicate screen; many hits read low in the repeat;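 first of two repeat runs on a subset; 0% = infected and 100% = uninfected wells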
* hit, by the source's call; ? = inconclusive; / = not tested or not shown. This is a subset; count on the stated rates, not on these rows.

SMILES	Mtb bLac sens	RecA intein inh	YopH inh	Arbovirus inh	Mtb H37Rv	others
Nc1nnc(SCC(=O)NN2C(=O)NC3(CCCCC3)C2=O)s1	-3	-0.4	-7	4	-2%
CC1=C(C(=O)Nc2ccc(C(=O)N3CCN(c4cccc(Cl)c4)CC3)cc2)SCCO1	3	6.7	/	/	/
Cc1oc2cc3oc(=O)c(CCC(=O)NCCC(=O)O)c(C)c3cc2c1C	-1	-3.7	/	/	/
O=C(Nc1ccnn1C1CCN(CC(O)CO)CC1)C1CCCC1 (centres undefined)	-2	-1.1	/	/	/
COc1cccc(/C=N/NC(=O)c2ccc(CN3c4cccc5cccc(c45)S3(=O)=O)cc2)c1	-2	-4.0	-29	-10	-7%
CCOC(=O)N1CCN(C(=O)c2ccc3c(c2)N(Cc2cccc(Cl)c2)C(=O)c2ccccc2S3=O)CC1 (centres undefined)	6	1.0	/	/	/
Cc1oc2cc(OCC(=O)O)ccc2c(=O)c1Oc1ccccc1	-6	/	-24	0	-11%
Cc1occc1C(=O)N1CCN(S(=O)(=O)c2ccccc2)CC1	-15	-3.3	/	/	/
CCOc1ccccc1CN1CCN(CC2CC2)CC1CCO (centres undefined)	-6	0.0	/	/	/
O=C(Cn1cc2c(n1)CCCCC2)NCCCN1CCOCC1	6	-3.1	-35	4	-6%	Arbovirus inh repeat=5
Cc1ccc(NC(=O)C2CCN(S(=O)(=O)c3c(C)nn(C)c3C)CC2)c(Cl)c1	0	0.4	/	/	/
COC(=O)c1ccc(COC(=O)c2nn(C)c(=O)c3ccccc23)cc1	5	/	/	-1	-1%
CCN(CC)CCSc1nc(O)c(C(C)C)c(=O)[nH]1	-8	-1.3	2	6	-1%
COC(=O)c1cccc(N(CC(=O)NC2CCCC2)C(=O)CCC(=O)Nc2cc(C)on2)c1	4	0.1	/	/	/
O=C(CNC(=O)c1ccc(=O)[nH]c1)Nc1ccc(F)c(F)c1	-5	-0.4	/	/	/
COc1cc2c3c(c1OC)-c1cc(O)ccc1CC3NCC2 (centres undefined)	-14	6.3	-46	17	2%
O=C(Nc1cc(C(F)(F)F)ccc1Cl)c1ccncc1	-9	0.0	/	0	1%
CC(C)n1c(C(F)(F)F)nc2cc(C(=O)N3CCOCC3)ccc21	3	-3.8	/	/	/
Cc1cc2c(=O)n(NC(N)=O)c(C)nc2s1	-5	2.2	-20	6	2%
Cc1[nH][nH]c(=O)c1C(c1cc(Br)ccc1O)c1c(C)[nH][nH]c1=O	1	97*	/	/	/
O=C(C(c1ccccc1)c1ccccc1)N1CCN(Cc2ccncc2)CC1	-10	2.8	-48	9	-4%
Cc1nnc(SCC(=O)N2CCN(S(=O)(=O)c3ccccc3)CC2)n1Cc1ccccc1	1	-1.6	-5	3	0%
COc1ccc(NC(=O)C23CCC(C)(C(=O)O2)C3(C)C)cc1 (centres undefined)	-6	/	-23	3	-13%
CCN(CC)S(=O)(=O)c1ccc(C(=O)OCCN2C(=O)c3cccc4c(N5CCOCC5)ccc(c34)C2=O)cc1	4	-19	-31	-7	-1%
CCCCOC(=O)CSC1=C(C#N)C(c2ccccc2OC)C(C#N)C(=O)N1 (centres undefined)	14	0.7	-10	-8	12%
O=C(Nc1cnn(C23CC4CC(CC(C4)C2)C3)c1)c1cnn2c(C(F)(F)F)cc(-c3ccco3)nc12	-1	1.3	6	-17	6%
Cc1ccccc1C(=O)Nc1ccc2c(C#N)c3nc4ccccc4nc3n2c1	3	6.6	-5	-9	-4%
CNc1ccc(C(=O)c2ccccc2C(=O)O)cc1[N+](=O)[O-]	5	-3.9	/	6	-5%
COCCNC(=O)CSc1nc(-c2ccccc2)cs1	-3	0.2	11	-1	-5%
Cn1c(NCc2ccco2)nc2c1c(=O)n(Cc1ccc(Br)cc1)c(=O)n2C	2	5.7	-7	4	99µM*
CCCCc1nc2ccccc2c(=O)n1NC(=O)c1c(O)c2c(n(CC(C)C)c1=O)CCCC2	/	-3.2	-41	-11	3%
CCOC(=O)c1cc(C)sc1NC(=O)c1ccc(Cl)s1	15	-6.8	-16	-3	11%
C=CCn1c(NS(=O)(=O)c2ccccc2)c(S(=O)(=O)c2ccc(C)cc2)c2nc3ccccc3nc21	-3	-1.4	13	26	-5%
Cc1cc(C)n(-c2nnc3n2N=C(c2c[nH]c4ccccc24)CS3)n1	4	-2.6	-18	-10	-7%
CCCCn1cc(SCC(=O)O)c2ccccc21	-10	5.1	-43	1	-4%
Cc1ccccc1-c1nnc(NC(=O)c2cc3ccccc3oc2=O)s1	/	/	-12	-4	?
CCn1c(C)nc2cc(C(=O)NNC(=O)Nc3cccc(Cl)c3)ccc21	4	1.0	/	-4	-8%
O=C(NCC(c1ccco1)N1CCN(c2ccc(F)cc2)CC1)c1ccc2c(c1)OCO2 (centres undefined)	-5	6.0	/	/	/
CC(=O)c1c(C)[nH]c(C(=O)OCC(=O)N2CC(=O)Nc3ccccc32)c1C	1	-0.4	-4	-1	2%
Cc1ccc2nc(SCC(=O)c3cc(C)n(C)c3C)[nH]c2c1	0	-0.6	-10	2	-10%
COc1nc(Nc2ccc([N+](=O)[O-])cc2)nc(NC(C)C)n1	7	0.6	-15	2	5%
CCCN(C(=O)COC(=O)CCOc1ccc(C)cc1)c1c(N)n(Cc2ccccc2)c(=O)[nH]c1=O	-1	-3.1	/	/	/
N/C(Cc1ccc(Cl)cc1Cl)=N\OC(=O)c1ccccc1F	22	4.1	/	-5	-4%
CC(c1ccccc1)n1c(CCCO)nc2ccccc21 (centres undefined)	1	-1.3	/	/	/
CNS(=O)(=O)c1cn(CC(=O)NCc2ccc(F)cc2)cc1S(=O)(=O)NC	-1	-1.3	/	/	/

Gathered by group: the compounds so far containing a cyano group.
SMILES	Mtb bLac sens	RecA intein inh	YopH inh	Arbovirus inh	Mtb H37Rv	others
CCCCOC(=O)CSC1=C(C#N)C(c2ccccc2OC)C(C#N)C(=O)N1 (centres undefined)	14	0.7	-10	-8	12%
Cc1ccccc1C(=O)Nc1ccc2c(C#N)c3nc4ccccc4nc3n2c1	3	6.6	-5	-9	-4%

Compounds shown so far with an aryl thioether with sulfur outside any ring (6):
SMILES	Mtb bLac sens	RecA intein inh	YopH inh	Arbovirus inh	Mtb H37Rv	others
Nc1nnc(SCC(=O)NN2C(=O)NC3(CCCCC3)C2=O)s1	-3	-0.4	-7	4	-2%
CCN(CC)CCSc1nc(O)c(C(C)C)c(=O)[nH]1	-8	-1.3	2	6	-1%
Cc1nnc(SCC(=O)N2CCN(S(=O)(=O)c3ccccc3)CC2)n1Cc1ccccc1	1	-1.6	-5	3	0%
COCCNC(=O)CSc1nc(-c2ccccc2)cs1	-3	0.2	11	-1	-5%
CCCCn1cc(SCC(=O)O)c2ccccc21	-10	5.1	-43	1	-4%
Cc1ccc2nc(SCC(=O)c3cc(C)n(C)c3C)[nH]c2c1	0	-0.6	-10	2	-10%

New compounds follow:
SMILES	Mtb bLac sens	RecA intein inh	YopH inh	Arbovirus inh	Mtb H37Rv	others
CCOC(=O)NC(C(Cl)(Cl)Cl)S(=O)(=O)c1ccccc1 (centres undefined)	2	1.7	/	/	-3%
Cc1cc(C)cc(-n2cccc2/C=C2/C(=N)N3C(=NC2=O)SN=C3S(C)(=O)=O)c1	-4	4.2	/	17	0%
CSc1cccc(NC(=O)/C=C/c2ccc(Cl)cc2)c1	2	3.2	-32	3	?
O=C(c1ccc(S(=O)(=O)N2CCOCC2)cc1)N(c1cccc(Cl)c1)C1C=CS(=O)(=O)C1 (centres undefined)	-2	-0.1	/	2	-4%
COc1cc(/C=N/NC(=O)c2ccoc2C)cc(OC)c1OC	20	-0.2	-25	/	-3%
CC1OC(OC2C(CO)OC(OC3C(CO)OC(O)C(O)C3O)C(O)C2O)C(O)C(O)C1N[C@@H]1C=C(CO)[C@@H](O)C(O)[C@H]1O (some centres undefined)	-3	-3.3	/	/	/
CCOC(=O)C1=C(C)Nc2nc(=S)[nH]n2C1c1ccc(Cl)cc1 (centres undefined)	/	-0.8	-99	6	/
Cc1ccc(C)c(NC(=O)Cc2nc(CCl)cs2)c1	7	2.9	-12	3	0%
CCOc1ccc(Cc2nc(C)c(CC(=O)N3CCCCC3)c(=O)[nH]2)cc1	-7	-2.7	-34	0	-4%
COc1ccc(OC)c(NC(=O)Nc2ccc3[nH]ccc3c2)c1	-3	1.7	/	/	/
CN1C(=O)C(O)(C2COC(C)(C)CC2=O)c2ccccc21 (centres undefined)	20	-4.1	-34	-3	-11%
Cc1cccc(OCC(=O)N2CCN(S(C)(=O)=O)CC2)c1	0	-2.1	/	7	0%
CCCCn1c(SCC(=O)Nc2ccc3c(c2)OCO3)nc2c1c(=O)n(C)c(=O)n2C	-3	-0.3	-32	-1	-2%
Cc1ccc(S(=O)(=O)NNc2nnc(C)c(=O)[nH]2)cc1	3	/	/	7	3%
CCOc1cc(/C=N/Nc2cc(C)nc3ccc(C)cc23)ccc1O	31	0.0	/	/	/
NC(=O)COc1ccc2cc(-c3ccccc3)c(=O)oc2c1	83	-5.9	/	/	/
CCC1CCCCN1C(=O)COc1c(Br)cc(Br)c2cccnc12 (centres undefined)	7	5.4	/	-8	-13%
CC(C)OCCCn1c(SCC(=O)N2CCc3ccccc32)nc2ccccc2c1=O	-3	2.9	-28	4	-8%
COCCN1C(=O)/C(=C/c2ccc(N3CCCC3)cc2C)SC1=S	9	0.8	/	-3	4%
CCSCc1nnc(SCC(=O)Nc2cc(F)ccc2C)n1C	-1	-1.0	/	0	-4%
COc1ccc(NC(=O)c2ccccc2NC(=O)c2ccco2)cc1	-4	-2.9	/	/	/
COc1ccccc1-n1c(C)cc(/C=C2/C(=N)N3C(=NC2=O)SN=C3S(C)(=O)=O)c1C	-2	-9.8	/	35*	-5%
Cc1[nH]nc2c1C1(CCN(C(=O)c3ccccc3)CC1)C(C#N)=C(N)O2	-12	79*	-13	12	-2%
Cc1ccc(-n2c(C)cc(C(=O)CN3CCOCC3)c2C)cc1C	0	1.4	/	14	4%
Cc1ccc(C(c2nnnn2C2CCCC2)N2CCc3ccccc32)cc1 (centres undefined)	-1	6.9	-14	6	2%
CCOC(=O)/C(C(N)=NCCCO)=C(/O)c1ccccc1	0	-0.5	-2	5	-1%
COc1ccc(N2C(=O)C(CC(=O)Nc3ccccc3)N(Cc3ccc(OC)c(OC)c3)C2=O)cc1 (centres undefined)	5	3.9	/	1	-2%
COC(=O)C1CCN(Cc2cc(=O)oc3cc(OC)ccc23)CC1	15	0.5	-55	2	1%
COc1ccc(Cc2nnc(CCc3ccccc3)s2)cc1	-2	0.3	/	/	/
CCOc1cc(NC(=S)NCC2CCCO2)c(OCC)cc1NC(=O)c1ccccc1F (centres undefined)	15	-4.1	/	3	12%
Cc1ccc(-c2noc(-c3cccs3)n2)cc1	7	6.6	-24	3	0%
Cc1cnc(NC(=O)CSc2nnc(Cc3ccccc3)n2C)s1	-12	-0.8	-2	-4	0%
C=CCNC(=S)NCc1ccccc1	-4	-0.4	/	/	-12%
Cc1noc(C)c1NC(=O)NC(c1ccccc1)c1ccccc1	-9	1.1	/	/	-7%
CCOC(=O)C1(C(F)(F)F)N=C(N(C)C)OC(N(C)C)=N1	-10	0.1	-33	-1	-10%
COc1cc(C(=O)OCC(=O)NC2CCCC2)cc(NC(=O)c2ccco2)c1OC	93	-1.3	2	5	-6%
CCc1ccccc1NC(=O)CN(C)C(=O)CSc1nnc(Nc2cccc(C)c2C)s1	0	1.6	-36	16	-1%
CCOC(=O)c1[nH]c2cc3c(cc2c1CCCN1C(=O)c2ccccc2C1=O)OCCO3	10	4.8	-38	-4	-2%
CCN(C(=O)c1ccc2c(Cl)c3c(nc2c1)CCC3)c1ccc(C)c(C)c1	6	30*	-15	-33	5%
O=C(CC1SC2=NCCN2C1=O)Nc1ccc(Cl)cc1 (centres undefined)	-7	-2.5	-16	10	-10%
COc1ccc(CC(=O)OCC(=O)Nc2ccc(C(=O)Nc3ccc(OC)cc3)cc2)cc1	-3	4.0	/	3	-1%
COc1ccccc1CC1CC(=O)N(c2cccc(Cl)c2C)C1=O (centres undefined)	-7	2.6	/	/	/
CCCSc1nc2c(cnn2-c2ccc(C)cc2)c(=O)[nH]1	3	1.8	-26	-24	9%	Arbovirus inh repeat=-24
Cc1ccc(S(=O)(=O)Nc2nc3ccccc3nc2NCC2CCCO2)c(C)c1 (centres undefined)	-6	-1.4	/	/	-2%
CCN1CCN(CCn2c(=S)[nH]c3ccccc3c2=O)CC1	-5	-0.5	-18	10	-1%
Cc1cccc(NS(=O)(=O)Cc2ccccc2)n1	-5	-0.3	-14	3	8%
O=C(CN1N=C(c2ccccc2)CCC1=O)NCCCN1CCc2ccccc2C1	-4	0.6	-18	0	-9%
